Compound activity (PubChem BioAssay)
Sfp inh: qHTS Assay for Inhibitors of Bacillus subtilis Sfp phosphopantetheinyl transferase (PPTase). actives 3.5% (n = 310,000). 4'-phosphopantetheinyl transferase ffp (Bacillus subtilis), Q9F4F7. Biochemical Sfp PPTase activity, qHTS. Potency, µM, for inactives: max response, negative = inhibition, most hits filed as inhibitors; active means well fitted inhibition curve with a large enough effect; inconclusive means small, poorly fitted or top-dose-only effect, or another doubt; inactive means no such curve, though single readings can be large or run the other way;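 further: the enzyme is Sfp with the accession as filed and its product quenches rhodamine fluorescence; potency means the concentration at half of the fitted maximal effect; 0% = enzyme reaction without inhibitor and -100% = no enzyme wells; top concentration of the series not given in the record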
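Compounds were incubated with enzyme (final 15 nM) for 15 min at room temperature before substrate addition started the reaction. Fluorescence at 525 nm excitation, 598 nm emission was recorded immediately and after 30 minutes.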
TRPV1 potentiator: HTS Assay for Compounds that Act as Potentiators of the Vanilloid Receptor 1 | potentiation, % at 8.33 µM | Transient receptor potential cation channel subfamily V member 1 (Homo sapiens), Q8NER1 | TRPV1-expressing cells, Fluo-8 calcium influx, capsaicin EC20 potentiation; host cell line not named in the record; control for the full effect not named in the record | actives 0.02% (n = 320,000); active means potentiation above 80%; inconclusive means 30% to 80%; inactive means below 30%; further: 0% is about no effect
Target sequence (Q8NER1 whole entry, looked up): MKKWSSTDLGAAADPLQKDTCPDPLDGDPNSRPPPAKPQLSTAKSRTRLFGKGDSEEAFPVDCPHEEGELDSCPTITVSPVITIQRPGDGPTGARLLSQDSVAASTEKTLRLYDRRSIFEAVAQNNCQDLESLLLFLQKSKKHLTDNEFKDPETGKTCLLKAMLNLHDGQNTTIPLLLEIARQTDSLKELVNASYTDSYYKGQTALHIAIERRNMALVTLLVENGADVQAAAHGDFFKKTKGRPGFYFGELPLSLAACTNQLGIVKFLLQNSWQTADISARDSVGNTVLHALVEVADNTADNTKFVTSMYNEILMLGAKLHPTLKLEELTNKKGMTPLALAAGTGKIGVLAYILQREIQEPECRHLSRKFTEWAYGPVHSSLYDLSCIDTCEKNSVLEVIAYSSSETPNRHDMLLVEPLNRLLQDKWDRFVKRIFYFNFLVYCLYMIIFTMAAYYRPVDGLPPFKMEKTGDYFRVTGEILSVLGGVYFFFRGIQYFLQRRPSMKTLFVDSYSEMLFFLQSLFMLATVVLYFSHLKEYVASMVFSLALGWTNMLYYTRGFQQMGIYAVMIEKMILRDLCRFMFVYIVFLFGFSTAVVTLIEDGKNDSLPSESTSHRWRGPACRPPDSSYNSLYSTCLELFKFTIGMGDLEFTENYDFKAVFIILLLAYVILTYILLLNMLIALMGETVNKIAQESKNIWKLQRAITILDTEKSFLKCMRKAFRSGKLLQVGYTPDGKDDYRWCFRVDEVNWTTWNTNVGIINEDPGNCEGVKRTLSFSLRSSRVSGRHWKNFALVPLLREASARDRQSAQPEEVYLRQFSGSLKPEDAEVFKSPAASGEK
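Cells expressing TRPV1 were dye-loaded with Fluo-8 and read kinetically: 10 s baseline, 3 min after compound (agonist portion), then 2 min after EC20 capsaicin (allosteric enhancer portion). Calcium-bound dye fluorescence at 480/520 nm.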
ClpP mod: qHTS Assay for Activators of ClpP; purified B. subtilis ClpP, FRET peptide cleavage, 20 min; ATP-dependent Clp protease proteolytic subunit (Bacillus subtilis (strain 168)), P80244; Potency, µM (series often up to 57.5 µM), for the others: at the highest dose activity change, negative = active; actives 1.9% (n = 340,000); active = well fitted falling curve with a large enough effect; inconclusive = small, poorly fitted or top-dose-only effect; inactive = no such curve, though single readings can be large or run the other way; further: potency means the concentration at half of the fitted maximal effect; the source files actives as falling curves though it sought activators and does not explain the sign; nearly all actives have a fitted effect of over 65% in size; many hits overshoot -100%
Target sequence (P80244 whole entry, looked up): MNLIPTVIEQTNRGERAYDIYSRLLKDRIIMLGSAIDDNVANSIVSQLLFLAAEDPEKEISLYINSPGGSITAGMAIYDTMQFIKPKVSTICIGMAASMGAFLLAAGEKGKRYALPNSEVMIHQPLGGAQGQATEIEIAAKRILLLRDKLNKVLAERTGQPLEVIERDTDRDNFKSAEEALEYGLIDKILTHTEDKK
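ClpP 10 microg/mL final, pH 8 Tris/KCl buffer with BSA, glycerol, Tween-20; compound pinned in; FRET-FV substrate; RT 20 min; Ex320/Em430; ΔFRET vs ADEP 5.8 microM, DMSO, no enzyme.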
Menin-MLL FL inh: qHTS Assay for Inhibitors Targeting the Menin-MLL Interaction in MLL Related Leukemias: Competition With Fluorescein Labeled MLL-derived Peptide | Fluorescence polarization, fluorescein-MLL peptide displacement from menin | FP activity change, % at 61.4 µM | 290,000 tested, under 10 active | AID 1766, 2009; inconclusive = falling polarisation curve, or a change in total fluorescence; inactive = total fluorescence flat and polarisation flat or rising; no compound was filed as active; the % refers to the polarisation; negative = inhibition;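 further: % of control where 0% means no effect; inhibitors lower the polarisation; unlabelled MLL peptide was the positive control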
gsp agonist: qHTS for Agonist of gsp, the Etiologic Mutation Responsible for Fibrous Dysplasia/McCune-Albright Syndrome: qHTS. AID 624287, 2012. Potency, µM (titrated, usually from 76.9 µM), for inactives: at the highest dose activation (cAMP increase), most hits filed as activators. gsp mutant cells, cAMP HTRF, 30 min; control for the full effect not named in the record. actives 0.13% (n = 340,000); active = well fitted activation curve with a large enough effect; inconclusive = small, poorly fitted or top-dose-only effect, or another doubt; inactive = no such curve, though single readings can be large or run the other way; cell line not stated here;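 further: phosphodiesterase inhibitor Ro 20-1724 added with compounds to block cAMP breakdown; potency means the concentration at half of the fitted maximal effect; nearly all actives have a fitted effect of over 60% in size; about a fifth of the inactives were tested at one dose only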
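Cells in DMEM/10% FBS with G418 were pretreated with compounds in DMSO plus […] (300 uM stock) for 30 min at 37C. cAMP was measured by HTRF (cAMP-d2 plus anti-cAMP antibody-K) after 30 min at room temperature.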
D2 potentiator: Beta-Arrestin HTS for Positive Allosteric Modulators of the Human D2 Dopamine Receptor: Potentiators; DiscoveRx D2 beta-arrestin cells, luminescence, 90 min; 100% = 57 uM dopamine signal; actives 0.23% (n = 360,000); potentiation, % (test concentration not listed); active = potentiation of 50% or more; inconclusive = 30% to 50%; inactive = 30% or less;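 further: compound concentration not given in the record; tested on top of an EC20 dose of dopamine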
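D2 cells co-treated with compound plus 50 nM dopamine (EC20) for 90 min at 37 deg C to detect potentiation. Beta-arrestin recruitment was read as enzyme-fragment luminescence after 1 h at ambient temperature. Full response was set by 57 uM dopamine.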
gsp antag: qHTS for Antagonists of gsp, the Etiologic Mutation Responsible for Fibrous Dysplasia/McCune-Albright Syndrome: qHTS; gsp-mutant cells, cAMP HTRF, 30 min; control for the full effect not named in the record; Potency, µM (titrated, usually from 76.9 µM), inactives show at the top dose activity change, negative = inhibition, actives largely listed as inhibitors; actives 0.4% (n = 340,000); AID 624288, 2012; active = falling curve of any shape with a large fitted effect; inconclusive = falling curve, mostly with a smaller effect; inactive = flat or rising curve; cell line not stated here;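 further: intracellular cAMP measured with PDE inhibitor Ro 20-1724 present during compound exposure; potency means the concentration at half of the fitted maximal effect; on the % scale 0 is the no-effect control and ±100 the full control effect; nearly all actives have a fitted effect of over 65% in size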
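Cells in G418 medium, seeded 16-24 h, 37C; buffer exchange to DPBS + 1 mM CaCl2, 0.5 mM MgCl2, 0.05% BSA; cpds in DMSO + […] (300 uM stock), 30 min 37C; HTRF cAMP detection.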
* marks the source's active call; other numbers are inactive results; ? = inconclusive; . = no result given; & = joins results of further samples; [ ] = dose if it differs, or a comment. Random draw from the library. Share with any hit: about 5.1%.

SMILES | Sfp inh | TRPV1 potentiator | ClpP mod | Menin-MLL FL inh | gsp agonist | D2 potentiator | gsp antag
CCCCN(CCCC)S(=O)(=O)c1ccc(NC(=O)Cc2cccs2)cc1 | 19% | -20 | -0.8% | 10 | ? | 4 | -2%
COC(=O)Nc1nn(-c2ccc(OC)cc2)c(=O)c(C#N)c1C | 20% | -3 | 0.9% | 1.5 | 2% | -6 | 1%
COc1ccc([N+](=O)[O-])cc1NC(=O)Cc1ccccc1Cl | -26% | 3 | 0.5% | 2.0 | 1% | -15 | -3%
COc1cc(OC)c(OC)cc1/C=N/Nc1nc2ccccc2[nH]1 | 21% | -2 | -11% | 3.9 | -7% | -11 | -1%
Cc1ccc(S(=O)(=O)CCSc2nc(C)cc(C)c2C#N)cc1 | 14% | -4 | -3.0% | -1.8 | -2% | -11 | ?
O=C(COc1ccc([N+](=O)[O-])cc1Cl)N1CCOCC1 | 27% | -19 | 1.8% | 4.7 | 30% | 1 | 1%
Cc1nn(C)cc1CNC(=O)c1cccc(F)c1 | 3% | 4 | . | 2.4 | -4%[15.4 µM] | -5 | 10%
Cn1c(COc2ccc(Br)cc2)nnc1SC1CCc2ccccc2C1=O (stereo not given) | 50µM* | -14 | 0.0% | 7.9 | 8% | 29 | -15%
CCN(CC)C1Oc2cc3c(cc2C(c2cc(OC)c(O)c(OC)c2)C1C)OCO3 (stereo not given) | . | . | -2.2% | . | 21% | -6 | 14%
COc1cccc(CSc2nnc(-c3ccco3)n2C)c1 | -2% | 1 | -0.5% | -1.9 | -32%[inhibitor] | 1 | 2%
CCC(C)(C)n1nnnc1C(c1cc2cc(C)ccc2[nH]c1=O)N1CCCC1 (stereo not given) | 14µM* | 5 | ? | 4.2 | 8% | -9 | -10%
Cc1cc(N2CCN(C)CC2)n2nc(-c3ccc(Cl)cc3)nc2n1 | 10% | -8 | -8.3% | -6.4 | 9% | -15 | 1%
CCOC(=O)C1=C(C)NC(=O)NC1c1ccc(F)cc1 (stereo not given) | 15% | 13 | 0.0% | -0.1 | -44%[inhibitor] | 4 | 1%
O=C(N/N=C/c1ccc(F)cc1)c1cc[n+]([O-])cc1 | 14% | -6 | . | 0.0 | 30% | -7 | 9%
Cc1c[n+]([O-])n(-c2ccc(C(=O)O)cc2)n1 | 4% | 7 | -1.9% | 0.0 | -24% | -24 | 4%
C[C@H](CO)N1C[C@H](C)[C@@H](CN(C)C(=O)Nc2ccccc2)Oc2cc(Br)ccc2S1(=O)=O | . | . | 0.9% | . | 40% | -6 | .
COC(=O)c1nc(-c2ccccc2)oc1N1CCOCC1 | -2% | -1 | . | -10 | 27% | -8 | -1%
CCOC(=O)c1c(S(=O)(=O)Nc2ccc(CN3CCC(C)CC3)cc2)c(C)n(C)c1C | 14% | -8 | -0.8% | . | ? | -37 | 9%
CC(=O)c1ccc(NC(=O)c2ccc(S(=O)(=O)N3CCCC3)cc2)cc1 | -4% | -12 | -2.2% | 3.8 | -20% | -17 | -8%
NNC(=O)c1sccc1OCc1ccc(Cl)cc1Cl | 4% | 4 | . | -0.9 | -16%[15.4 µM] | -8 | -7%
Nc1nc(SCc2ccc(Br)cc2)[nH]c(=O)c1-c1ccccc1 | -8% | 7 | . | -0.9 | -3% | -4 | 18%
Cc1ccc(-n2c(N)c(C(=O)N3CCN(C)CC3)sc2=S)cc1 | -93% | -18 | -0.4% | 1.4 | -57%[inhibitor] | -6 | 1%
CCc1ccc(Nc2nnc(SCC(=O)NCCN3C(=O)CSC3=O)s2)cc1 | 15% | -53 | 1.8% | 7.3 | -8% | -5 | -13%
COc1ccc(N2CCN(C(=O)COC(=O)c3ccc(-n4nc(C)cc4C)cc3)CC2)cc1 | . | 1 | -5.0% | . | 2% | 0 | 6%
COC(=O)C1(C)Cc2cc(OC(C)=O)c(OC(C)=O)cc2N1 (stereo not given) | 10% | 14 | . | -1.9 | . | . | .
Cc1ccccc1Nc1nc(N)nc(COC(=O)c2ccc([N+](=O)[O-])o2)n1 | . | 0 | -0.1% | . | 6% | -1 | 0%
Cc1nn(Cc2ccc(F)cc2)c(C)c1NC(=O)c1noc2c1CCc1ccccc1-2 | 5% | ? | -4.5%&-2.7% | -1.3 | ? | 12 | 35µM*
Cc1cc(=O)[nH]c(N/N=C/c2ccc(C)o2)n1 | ? | 8 | -3.4% | 5.3 | -29% | -4 | -1%
N#C/C(C(=O)N1CCCCC1)=C1/N=C(NC(=O)c2ccc(F)cc2)c2ccccc21 | 7% | 2 | 0.6% | -2.7 | 25% | -1 | -1%
CCOc1ccc(N=c2oc3cc(O)ccc3cc2C(=O)NCC2CCCO2)cc1 (stereo not given) | 9% | 1 | ? | 2.6 | 6% | -13 | 2%
COc1ccc(N2CCN(CCNC(=O)c3nnc(Cc4c(F)cccc4Cl)o3)CC2)cc1 | 5% | 0 | -0.9% | 2.2 | 13% | -23 | -6%
NC(=S)Nc1cccc2cnccc12 | 9% | 17 | -2.2% | 2.5 | ? | 4 | 1%
Cc1ccccc1-n1ncc2c1CC(C)(C)CC2NC(=O)CSc1ccncc1 (stereo not given) | 11% | 0 | 0.6% | . | 17%[15.4 µM] | -24 | ?
COc1ccc(OC)c(NC(=O)c2cc3oc4ccccc4c3cc2O)c1 | 18% | -6 | 2.8% | 2.1 | 32µM* | ? | ?
Cc1ccc(C(=O)CCC2CCCCC2=O)cc1 (stereo not given) | 12% | -30 | 0.6% | -1.0 | -53%[inhibitor] | 0 | -2%
CC(=O)Nc1nnc([N+](=O)[O-])s1 | . | . | -3.7% | . | ? | -12 | .
Cc1c(NC(=O)CN2CCCC(C)C2)ccc2nsnc12 (stereo not given) | ? | -2 | . | 1.6 | 21%[15.4 µM] | -13 | 6%
O=C1CN(C(=O)CSc2ccccn2)c2ccccc2N1 | . | . | . | . | -9% | -4 | 7%
COc1ccc(O)c(/C=N/N2CCCCC2)c1 | 8% | 8 | . | -6.3 | -3% | 1 | -4%
CC(C)C(c1nnnn1C1CCCCC1)N1CCN(C(=O)c2ccco2)CC1 (stereo not given) | 9% | 17 | . | -7.0 | 5% | -6 | -3%
COc1ccc(-c2nc(N)n(S(=O)(=O)c3ccc(C)cc3)n2)cc1 | 6% | 8 | . | -5.4 | -1%[15.4 µM] | -11 | .
COc1ccc(/C=C2\C(=O)ON=C2c2cccc([N+](=O)[O-])c2)cc1 | 56µM* | -9 | . | 3.1 | . | . | .
O=C(Nc1ccccc1)c1cc2ccccc2[nH]1 | -11% | -5 | -9.8% | 4.2 | -16% | -7 | 6%
COCCn1nnnc1CN(CCc1ccccc1)Cc1cc2cc(OC)ccc2[nH]c1=O | . | . | ? | . | -10% | -16 | -6%
O=C(NCC1CC1)C1(C(F)(F)F)CC(CCc2ccccc2)CCCO1 (stereo not given) | -1% | . | 0.9% | -2.0 | . | -2 | -4%
CC(C)C(=O)NCCc1nc(-c2ccccc2Cl)no1 | . | . | 0.3% | . | . | 2 | 10%
O=C(COc1ccc([N+](=O)[O-])cc1)NNC(=O)Nc1ccccc1F | -1% | -5 | 1.6% | 3.8 | 15% | -9 | 7%
COc1ccc(CCC(=O)Nc2ccc(Br)cn2)cc1 | 4% | -2 | -0.3% | 2.4 | -2% | -10 | 1%
Cc1ccc(NC(=S)NNC(=O)c2cccc([N+](=O)[O-])c2)cc1Cl | 16% | 19 | 0.0% | -1.8 | 21% | -30 | -16%
CN(C)C(=O)CSc1cnc2ccccc2n1 | 14% | -23 | . | -4.6 | -24% | -6 | 4%
Further compounds follow:
SMILES | Sfp inh | TRPV1 potentiator | ClpP mod | Menin-MLL FL inh | gsp agonist | D2 potentiator | gsp antag
COc1ccc(/C=C(/C#N)C(=O)NC2CCCCC2)cc1Br | 19% | -6 | 13% | 2.5 | -19% | -8 | 0%
CCN(C(=O)c1ccc(C)c(Br)c1)c1ccccc1 | 3% | -1 | . | -6.4 | ? | -7 | -17%
O=C(O)c1ccccc1C(=O)NCCCCCCNC(=O)c1ccccc1C(=O)O | 18% | -1 | ? | -6.7 | -13%[15.4 µM] | -4 | 8%
Cc1ccc(C(NC(=O)N2CCCC2)C(Cl)(Cl)Cl)cc1F (stereo not given) | 18% | -10 | . | -4.4 | -9%[15.4 µM] | -5 | -14%
O=C1c2ccccc2NC2(CCCCC2)N1N=C1CCCCC1 | 21% | -9 | 18µM* | -3.4 | 8% | -2 | 4%
CC1CCN(C(=O)Cn2c(=O)oc3ccccc32)CC1 | 7% | -2 | 1.2% | 1.0 | 4% | -14 | 3%
Cc1ccc(-c2ccc(CCC(=O)O)n2Cc2ccco2)cc1 | -18% | 7 | 32µM* | 5.2 | 0% | -6 | ?
CCNC(=O)CSc1nc2cc([N+](=O)[O-])ccc2n1-c1cccc(C(F)(F)F)c1 | -8% | -14 | 1.6% | 3.3 | -18% | -20 | -11%
O=C(C1CCN(c2nnc(N3CCCC3=O)s2)CC1)N1CCN(c2cccc(C(F)(F)F)c2)CC1 | 3% | 2 | -0.5% | 2.2 | ? | -14 | -18%
N#C/C(=C\c1cccn1-c1ccccc1)C(=O)NC1CCCCC1 | -17% | 11 | -2.2% | 8.7 | -33%[inhibitor] | -7 | -7%
O=C(c1noc2c1CCCC2)N1CCc2c([nH]c3ccccc23)C1c1ccccn1 (stereo not given) | 12% | 4 | . | -9.9 | -1%[15.4 µM] | -9 | 0%

Copied from the list:
Under ClpP mod, CCNC(=O)CSc1nc2cc([N+](=O)[O-])ccc2n1-c1cccc(C(F)(F)F)c1 reads 1.6%
Under gsp antag, Cc1ccc(C(NC(=O)N2CCCC2)C(Cl)(Cl)Cl)cc1F (stereo not given) reads -14%
